Mtb H37Rv: M. tuberculosis H37Rv growth inhibitors, H37Rv strain (AID 1626). inhibition, % at 10 µM, or IC50 in µM where a hit was titrated. M. tuberculosis H37Rv growth inhibition; higher % means a stronger effect. hit rate 0.95% among 220,000;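 active = confirmed in a dose series; inconclusive = inhibition above 80% but not taken into the dose series; inactive = below 80% or under 30% at every dose of the series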;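 note: bacteria incubated seven days before Alamar blue readout; 0% = bacteria only wells and 100% = bacteria with antibiotic wells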
RecA splice inh: inhibitors of M. tuberculosis RecA intein splicing; inhibition, %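 (about 9 µM by stock and volumes)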; hit rate 0.75% among 290,000; cell-free RecA intein splicing, fluorescence; in the data active = inhibition above about 30%; inconclusive = no clear call, values can overlap the other calls;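 note: 0% = vehicle wells and 100% = reference inhibitor control wells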
Target sequence (P9WHJ3 whole entry, looked up, canonical isoform): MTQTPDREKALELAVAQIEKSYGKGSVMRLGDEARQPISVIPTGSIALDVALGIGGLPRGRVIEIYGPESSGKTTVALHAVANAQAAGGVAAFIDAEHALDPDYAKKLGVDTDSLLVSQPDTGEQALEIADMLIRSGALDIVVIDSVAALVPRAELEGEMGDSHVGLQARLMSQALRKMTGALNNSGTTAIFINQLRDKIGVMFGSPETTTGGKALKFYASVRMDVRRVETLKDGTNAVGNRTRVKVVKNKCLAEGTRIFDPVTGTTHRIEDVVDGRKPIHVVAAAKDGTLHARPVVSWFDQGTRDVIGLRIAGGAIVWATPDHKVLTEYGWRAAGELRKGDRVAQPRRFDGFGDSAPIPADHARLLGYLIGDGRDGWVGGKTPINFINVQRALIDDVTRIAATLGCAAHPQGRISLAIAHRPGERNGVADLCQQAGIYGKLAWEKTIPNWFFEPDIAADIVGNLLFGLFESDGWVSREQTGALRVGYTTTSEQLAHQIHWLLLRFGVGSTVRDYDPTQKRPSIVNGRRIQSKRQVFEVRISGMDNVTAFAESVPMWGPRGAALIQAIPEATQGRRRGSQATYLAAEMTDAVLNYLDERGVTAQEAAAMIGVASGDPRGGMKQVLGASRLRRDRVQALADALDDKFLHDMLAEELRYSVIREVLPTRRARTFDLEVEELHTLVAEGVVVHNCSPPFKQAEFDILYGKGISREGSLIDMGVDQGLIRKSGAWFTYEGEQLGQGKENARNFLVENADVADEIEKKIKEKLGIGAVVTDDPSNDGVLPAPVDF
YopH inh: YopH (Yersinia) phosphatase inhibition; fluorescence Ex485/Em525; inhibition, %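 (about 10 µM by stock and volumes)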; hit rate 0.16% among 140,000; AID 898;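 active = inhibition of 50% or more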;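 note: controls were vehicle for no effect and minimum signal wells for full effect; inactives centre near -20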
Arbovirus inh: blocks arbovirus infection. inhibition, % at 10 µM. arbovirus infection cell-based antiviral screen. AID 1251. hit rate 0.37% among 200,000;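 active = inhibition from about 30%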;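 note: bluetongue infection of BSR cells; cell survival read as ATP light after 72 h; 0% = infected wells without compound and 100% = uninfected wells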
Mtb bLac sens: beta-lactam sensitization of Mtb H37Rv | M. tuberculosis H37Rv growth with meropenem, percent inhibition; hits of this screen are not shown here | inhibition, % at 25 µM | hit rate 0.27% among 330,000 | AID 434955;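 active = about 74% or more and at least 40 points above the plate without the antibiotic, then above 30% in a dose series; inconclusive = first-round hits that could not be retested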;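 note: growth measured after seven days incubation then overnight dye step; 0% = bacteria only wells and 100% = bacteria with antibiotic; twin plates without the antibiotic show which effects depend on it; some results filed as inactive read as strong as hits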
Arbovirus inh repeat: further read-out of Arbovirus inh, marked with its call; inhibition, %; measured here: 10K subset replicate screen; many hits read low in the repeat;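 first of two repeat runs on a subset; 0% = infected and 100% = uninfected wells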
An asterisk follows results filed as active; ? = inconclusive; . = not tested or not shown. Not all compounds are listed; count on the stated rates, not on these rows.

SMILES | Mtb H37Rv | RecA splice inh | YopH inh | Arbovirus inh | Mtb bLac sens | others
O=C(CCC(=O)OCC(=O)c1ccc(Br)cc1)Nc1cccc2cccnc12 | -9% | -0.1 | -25 | 2 | -2
S=C(NCC1CCCO1)Nc1cccc2ccccc12 (centres undefined) | 0% | -0.5 | . | 0 | -1
COc1ccccc1C(=O)Nc1ccc(S(=O)(=O)Nc2cc(C)on2)cc1 | -2% | . | -11 | 0 | 29
C=CCn1c(SCC(=O)Nc2ccccc2OC)nc(O)c(CC)c1=O | 1% | 1.1 | 3 | 3 | -11
COc1ccc(C(=O)C2CCCN(C(=O)/C=C/c3cnc[nH]3)C2)c(C)c1 (centres undefined) | . | 21 | . | . | -4
COc1ccc(NC(=O)c2sc(NC(=O)COc3ccccc3)nc2C)cc1 | 9% | 1.1 | -43 | -11 | 39
Cc1ccc(-n2nc3c(c2NC(=O)/C=C\c2ccc4c(c2)OCO4)CSC3)cc1 | . | 2.1 | -34 | -3 | -8
COc1cc(-c2nc(-c3ccccn3)no2)cc(OC)c1OC | 1% | 4.6 | -17 | -2 | 12
Cc1cc(C)c(C)c(S(=O)(=O)N2CCN(C(=O)C3CCC3)CC2)c1C | . | -1.3 | . | . | -8
COc1cc(NC(=O)c2cccs2)c(OC)cc1NC(=O)CCn1nnc2ccccc21 | 12% | 1.7 | -7 | 1 | 10
CCOC(=O)C1CCCN(C2CC(=O)N(c3ccc(C)cc3)C2=O)C1 (centres undefined) | 5% | 0.1 | -6 | 10 | -3
CCn1ncc(C2=NOC(C(=O)Nc3cc(OC)c(Cl)cc3OC)C2)c1C (centres undefined) | -5% | -4.0 | -30 | -4 | -5
O=C(Nc1ncccn1)c1ccc([N+](=O)[O-])o1 | 1% | -462 | . | 0 | 1
CCCCC(=NCCc1c(C)[nH]c2ccccc12)C1=C(O)CC(c2ccccc2)CC1=O (centres undefined) | 0% | 1.9 | . | -12 | 1
COc1ccc(NC(=O)C2=C(C)Nc3nc(CCCO)nn3C2c2ccc(OC)c(OC)c2)cc1 (centres undefined) | 5% | -1.0 | . | 2 | -11
Cc1cccc(NC(=S)NNC(=O)COc2ccc(Cl)cc2Cl)c1 | 9% | -3.6 | -6 | 12 | 3
O=C(O)c1ccccc1NC(=O)C1CCN(S(=O)(=O)c2cccc3nsnc23)CC1 | . | 1.8 | . | . | -10
O=C(COC(=O)c1ccccc1)c1ccc(Br)cc1 | 0% | -1.0 | -34 | 0 | 4
CCCOc1cccc(C2C(C(=O)c3ccc(C)o3)=C(O)C(=O)N2c2nc(C)c(C(C)=O)s2)c1 (centres undefined) | . | -16 | . | . | 39
CCCC(CCC(=O)Nc1ccc(C(=O)OCC)cc1)C(=O)O (centres undefined) | 1% | 1.2 | -10 | -2 | -3
COC(=O)[C@H]1C[C@@H]1[C@H](NC(=O)[C@H]1C[C@@H]1[C@H](NC(=O)OCc1ccccc1)c1ccccc1)c1ccccc1 | 1% | 5.9 | -16 | -6 | 0
CCn1c(CNC(=O)c2cccnc2)cc2ccccc21 | . | -2.4 | . | . | -1
Cc1cc(C(F)F)n2nc(C(=O)Nc3ccc(S(=O)(=O)NC45CC6CC(CC(C6)C4)C5)cc3)nc2n1 | 2% | . | -16 | 12 | 80
CCN(CC)C(=O)CSc1nc(OC)cc(=O)[nH]1 | -4% | 1.8 | -13 | 6 | 2
C=COc1ccc(N2C(=O)c3ccccc3OC2C)cc1 (centres undefined) | . | 1.2 | . | . | -3
Carrying on.
SMILES | Mtb H37Rv | RecA splice inh | YopH inh | Arbovirus inh | Mtb bLac sens | others
CC(OC(=O)c1ccc(Cl)nc1)C(=O)N1CCc2ccccc21 (centres undefined) | . | -0.6 | . | . | -6
Nc1cc(C(=O)OCC(=O)N2CCCC2)ccc1Cl | -5% | 5.4 | -32 | 9 | -8
COc1ccccc1CCNC(=O)C(=O)Nc1cc2c3c(c1)C(C)C(=O)N3CCC2 (centres undefined) | . | 1.2 | . | . | 0
O=C(Cn1c(O)c(/C=C2\C=Nc3ccc(Br)cc32)sc1=O)N1CCCC1 | . | -16 | -3 | -9 | -1
O=C(CCCOc1ccc(Cl)cc1Cl)NCc1ccccn1 | 4% | 1.4 | . | 6 | -3
CCn1c(SCC(=O)N=Nc2c(O)[nH]c3ccccc23)nnc1-c1ccc(C(C)(C)C)cc1 | -2% | -0.8 | -16 | -6 | -1
CCC(C)(C)n1nnnc1C(c1cc2cccc(C)c2[nH]c1=O)N1CCCC1 (centres undefined) | -2% | -1.4 | -27 | -2 | 0
O=c1cc(CSc2nc3ccccc3[nH]2)c2ccccc2[nH]1 | 1% | -1.4 | -21 | 5 | 3
CN1CC2=CC(O)CC3Oc4c(O)ccc(c4[C@]23C)C1 (some centres undefined) | -7% | -2.4 | . | . | -5
CCCCCSc1nc2c(c(=O)[nH]c(=O)n2C)n1CCc1ccccc1 | 6% | -3.5 | . | -2 | -6 | Arbovirus inh repeat=-3
COc1ccc(C(=O)NC(C)c2cnn(-c3ccccn3)c2C)o1 (centres undefined) | . | 2.3 | . | . | ?
COC1CCN(Cc2c(C(=O)N3C[C@@H](C)O[C@@H](C)C3)nc3ccc(Cl)cn23)CC1 | . | -1.2 | . | . | -5
COC(=O)COc1nc(C)c2c(c1C#N)CC(C)(C)OC2 | 8% | 0.6 | -40 | 7 | 96
COc1ccc(S(=O)(=O)Oc2ccc3ccccc3c2)cc1 | 6% | 2.6 | 24 | -9 | 11
CC(C)NC(=O)CCCn1cc([N+](=O)[O-])cn1 | 4% | 1.5 | . | 5 | 1
COc1ccc(S(=O)(=O)N2CCN(Cc3cccc(F)c3)CC2)cc1 | . | 2.5 | . | . | 26
CCN(Cc1ccccc1)C(=O)c1ccc(N(C)S(=O)(=O)c2ccc(C)cc2)cc1 | . | 10.0 | . | . | -14
COc1ccc(S(=O)(=O)NCCc2c[nH]c3ccc(Cl)cc23)cc1 | . | 2.4 | . | . | 80
O=C(NC(=S)Nc1cccc(O)c1)c1ccco1 | 2% | 0.4 | . | . | 3
COc1ccc(NC(=O)CSc2nncs2)cc1S(N)(=O)=O | -7% | 0.1 | . | . | -2
CN(C)c1ccc(C(=O)/C=C/c2ccccc2)cc1 | -1% | 3.0 | . | 3 | 1
COC(=O)c1ccc(N2CCN(C)CC2)c(NC(=O)c2cc3ccccc3o2)c1 | 6% | 0.5 | 8 | 2 | 9
COc1ccc(OC)c(CN2CCC(C(=O)N(C)CCc3ccc(OC)c(OC)c3)CC2)c1 | 0% | 0.3 | . | -3 | 9
O=C(CN(c1ccccc1F)S(=O)(=O)c1ccccc1)Nc1ccccc1C(=O)N1CCOCC1 | 5% | 2.7 | . | 4 | -10
CCC(=O)Nc1ccc(-c2nnc(-c3ccccc3)o2)cc1 | 5% | 2.6 | -30 | -4 | 34
More structures
SMILES | Mtb H37Rv | RecA splice inh | YopH inh | Arbovirus inh | Mtb bLac sens | others
COc1cc(/C=C/[N+](=O)[O-])ccc1O | -8% | -0.9 | -17 | -11 | 0
COc1cccc(C2CC(c3cccs3)=NN2S(C)(=O)=O)c1OC (centres undefined) | -7% | 2.0 | . | 0 | -5
COC(=O)/C=C/C(=O)Nc1cccnc1 | -25% | 7.0 | 6 | 0 | -3
COc1ccc(Cn2cccc(NC(=O)Nc3cccc(OC)c3)c2=O)cc1 | 7% | 5.4 | . | . | 10
N/C(=N\OC(=O)COc1ccc2ccccc2c1)c1cccnc1 | 5% | 4.6 | -12 | 13 | 1
Cc1cc(C)c(NC(=O)CSc2nc3ccc(NC(=O)CSc4nnnn4Cc4ccccc4)cc3s2)c(C)c1 | 9% | 0.8 | -12 | . | 3
CCOc1ccc(OCC)c(NC(=O)CC2Oc3ccccc3NC2=O)c1 (centres undefined) | -7% | . | -39 | 4 | -1
O=C(Nc1ccc(Br)cc1)c1ccc2ncsc2c1 | . | 3.5 | . | . | 0
COc1cccc(C(=O)/C=C/Nc2ccc(S(=O)(=O)Nc3onc(C)c3C)cc2)c1 | 6% | -1.0 | -31 | 5 | 5
O=C(NCc1ccccc1)C1CCCN(C(=O)Nc2ccccc2)C1 (centres undefined) | -10% | 3.5 | -36 | -2 | 5
CCc1nnc(NC(=O)c2nn(-c3ccccc3)nc2C)s1 | -9% | -2.2 | . | . | 2
O=C(O)C1CCCN(S(=O)(=O)c2ccc(Br)cc2)C1 (centres undefined) | -1% | 5.7 | -31 | 8 | -4
CC1CCCCC1Nc1nc2ccc(Cl)cc2n2cnnc12 (centres undefined) | . | 3.0 | . | . | 83
O=c1c2oc3ccccc3c2ncn1Cc1cccc(Cl)c1 | 3% | 0.4 | . | -7 | 0
COc1ccc(CC(=O)OCC(=O)N2CCCc3ccccc32)cc1 | . | 0.0 | . | . | 2
COc1ccc(NC(=O)Cn2c(=O)n(-c3ccccc3)c(=O)c3sccc32)c(OC)c1 | 0% | 1.1 | . | 5 | -2
CCCCCOC(=O)Cn1c(=O)c2c(nc(N3CCOCC3)n2C)n(C)c1=O | -7% | -1.1 | 0 | 10 | -1
O=C(CN1C(=O)COc2ccccc21)NCCCN1CCOCC1 | . | -4.6 | . | . | 1
COc1cc(OC)c(NS(=O)(=O)c2ccc(Cl)c(C(=O)OC(C)C(=O)N3CCCC3)c2)cc1Cl (centres undefined) | 5% | 0.0 | -1 | 2 | 6
O=C(Cc1ccc(Cl)cc1Cl)Nc1ccncc1 | . | 5.3 | . | . | -3
OC(COc1c(Br)cc(Br)cc1Br)CN1CCOCC1 (centres undefined) | 4% | -1.3 | -11 | -4 | .
CCOC(=O)c1c(C)n(C)c2cc(OCCN(CC)CC)ccc12 | 3% | -0.6 | -39 | 5 | -5
CCCCCCCc1nc2sc3c(c2c(=O)n1N)CC(C)(C)OC3 | 3% | 0.4 | . | . | -6
Cc1ccc(CC2CC(=O)N(c3nc(C)cc(C)n3)C2=O)cc1 (centres undefined) | 1% | -1.1 | . | -6 | 1
COc1cccc(N2CCN(C3CCCC(C)C3)CC2)c1 (centres undefined) | 0% | 1.7 | -12 | -5 | -2

Molecules from the list above that have bromine, in the order listed:
SMILES | Mtb H37Rv | RecA splice inh | YopH inh | Arbovirus inh | Mtb bLac sens | others
O=C(CCC(=O)OCC(=O)c1ccc(Br)cc1)Nc1cccc2cccnc12 | -9% | -0.1 | -25 | 2 | -2
O=C(COC(=O)c1ccccc1)c1ccc(Br)cc1 | 0% | -1.0 | -34 | 0 | 4
O=C(Cn1c(O)c(/C=C2\C=Nc3ccc(Br)cc32)sc1=O)N1CCCC1 | . | -16 | -3 | -9 | -1
O=C(Nc1ccc(Br)cc1)c1ccc2ncsc2c1 | . | 3.5 | . | . | 0
O=C(O)C1CCCN(S(=O)(=O)c2ccc(Br)cc2)C1 (centres undefined) | -1% | 5.7 | -31 | 8 | -4
OC(COc1c(Br)cc(Br)cc1Br)CN1CCOCC1 (centres undefined) | 4% | -1.3 | -11 | -4 | .

Next part:
SMILES | Mtb H37Rv | RecA splice inh | YopH inh | Arbovirus inh | Mtb bLac sens | others
CCOC(=O)C(=O)Nc1cc(C)on1 | 2% | 1.8 | . | 5 | 6
O=C(NCCC1=CCCCC1)C1CCN(C(=O)Nc2ccccc2)CC1 | -24% | . | 1 | 3 | 0
Cc1c(C(=O)N2CCC(N3CCSCC3)CC2)oc2c(F)cccc12 | . | -0.8 | . | . | 9
COc1ccc(CC2(CO)CCN(Cc3cnn(C)c3C)CC2)cc1 | -6% | 0.3 | . | -3 | 7
COCC(=O)N(Cc1cc2cc(OC)ccc2[nH]c1=O)c1ccccc1 | -5% | 0.8 | 5 | 9 | -6
CCCNC(=O)c1ccccc1N1CCN(CCCCN2C(=O)C3CCCCN3C2=O)CC1 (centres undefined) | . | -0.6 | . | . | 3
CCOC(=O)N1CCN(Cc2nc3cc(NC(=O)CC(C)C)ccc3n2CC)CC1 | . | 12 | . | . | -6
Cc1ccc(Cl)cc1N1CCN(C(=O)c2ccc(CN3CCOCC3)cc2)CC1 | 1% | 2.8 | -7 | -10 | 17
O=C(Cc1ccc(Cl)cc1)c1c[nH]c(C(=O)NCCCN2CCOCC2)c1 | 4% | 0.1 | . | -1 | -1
O=C(O)Cn1nc(-c2ccccc2)cc1-c1ccccc1 | . | 1.8 | . | . | -1
O=C(Nn1c(-c2ccc(F)cc2)nc2ccccc2c1=O)c1cccnc1 | 0% | 1.5 | . | 9 | -7
COc1ccc(C(C)NC(=O)C2CCCO2)cc1OC (centres undefined) | -11% | -0.9 | -16 | 4 | -10
CC(C)c1ccc(CN(C)CC(O)c2ccccc2)cc1 (centres undefined) | -1% | -0.1 | . | -21 | -12
OC[C@H]1O[C@@H](O[C@@H]2[C@@H](CO)O[C@@](O)(CO)[C@H]2O)[C@H](O)[C@@H](O)[C@H]1O | . | 0.3 | . | . | -3

Screening results deposited in PubChem BioAssay by several laboratories.
